D2 PAM = positive allosteric modulators of human D2 dopamine receptor. actives 0.23% (n = 360,000). potentiation, % (test concentration not listed). DiscoveRx D2 beta-arrestin cells, luminescence, 90 min; 100% = 57 uM dopamine signal; active = potentiation of 50% or more; inconclusive = 30% to 50%; inactive = 30% or less;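 note: compound concentration not given in the record; tested on top of an EC20 dose of dopamine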
Target sequence (P14416 whole entry, looked up): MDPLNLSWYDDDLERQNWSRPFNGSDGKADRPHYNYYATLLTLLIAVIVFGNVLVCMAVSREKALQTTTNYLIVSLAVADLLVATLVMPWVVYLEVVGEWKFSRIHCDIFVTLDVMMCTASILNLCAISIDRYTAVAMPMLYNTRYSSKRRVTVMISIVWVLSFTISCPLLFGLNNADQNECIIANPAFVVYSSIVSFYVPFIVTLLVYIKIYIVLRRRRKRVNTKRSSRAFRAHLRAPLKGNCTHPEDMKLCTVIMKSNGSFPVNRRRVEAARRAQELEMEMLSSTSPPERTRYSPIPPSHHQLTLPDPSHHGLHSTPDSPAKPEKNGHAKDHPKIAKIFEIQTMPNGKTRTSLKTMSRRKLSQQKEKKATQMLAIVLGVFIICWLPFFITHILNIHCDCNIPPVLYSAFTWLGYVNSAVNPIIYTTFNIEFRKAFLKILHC
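D2 cells co-treated with compound plus 50 nM dopamine (EC20) for 90 min at 37 deg C to detect potentiation. Beta-arrestin recruitment was read as enzyme-fragment luminescence after 1 h at ambient temperature. Full response was set by 57 uM dopamine.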
Six1-Eya2 inh = Six1/Eya2 interaction inhibition. Q15475+O00167. AlphaScreen GST-Six1/His-Eya2 binding, biochemical; stronger effect = lower value; control for the full effect not named in the record. activity change, % (concentration not given with the values). actives 0.56% (n = 360,000); in the data active = activity change below about -65%; inconclusive = about -30% to -65%; inactive = above about -30%; note: % is set by controls: 0 for no effect and ±100 for the full control effect
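Homogeneous AlphaScreen proximity assay pairing GST-Six1 with His-tagged Eya2 (added as 5X mix: 250 nM and 500 nM) in 50 mM Tris pH 8.0, 300 mM NaCl, 1 mM TCEP. Glutathione donor and nickel acceptor beads; 1 h, 37 °C, dark.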
TRPML1 blocker = blocks the human TRPML1 channel | TRPML1-inducible cells, Ca2+ dye fluorescence, FDSS; stronger effect = lower value; inhibition of EC80 agonist-evoked calcium signal | activity change, negative = inhibition, % (no concentration beside the values) | actives 0.02% (n = 390,000) | AID 624415; in the data active means activity change below about -50%; inconclusive means about -30% to -50%; inactive means above about -30%;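 note: stimulus is agonist 54-4 at its EC80 concentration; % is set by controls: 0 for no effect and ±100 for the full control effect; compound concentration not given in the record; the text of the record puts the active cut at -80%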
Target sequence (Q9GZU1 whole entry, looked up): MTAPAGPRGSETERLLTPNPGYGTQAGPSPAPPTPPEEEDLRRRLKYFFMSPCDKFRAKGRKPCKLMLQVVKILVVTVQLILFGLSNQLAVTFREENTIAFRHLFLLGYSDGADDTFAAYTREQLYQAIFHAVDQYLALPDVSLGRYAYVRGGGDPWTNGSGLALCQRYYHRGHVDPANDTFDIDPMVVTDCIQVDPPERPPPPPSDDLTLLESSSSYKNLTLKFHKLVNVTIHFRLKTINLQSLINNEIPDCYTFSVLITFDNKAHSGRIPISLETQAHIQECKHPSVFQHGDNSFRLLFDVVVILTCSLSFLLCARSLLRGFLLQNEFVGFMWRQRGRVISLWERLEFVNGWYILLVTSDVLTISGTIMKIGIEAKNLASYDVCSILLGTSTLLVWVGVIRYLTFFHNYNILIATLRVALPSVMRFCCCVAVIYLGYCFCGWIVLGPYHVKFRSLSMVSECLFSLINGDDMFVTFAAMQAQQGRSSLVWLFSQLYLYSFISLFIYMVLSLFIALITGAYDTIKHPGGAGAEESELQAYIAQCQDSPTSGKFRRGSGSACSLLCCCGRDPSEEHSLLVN
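Calcium fluorescence in TRPML1-DL cells induced overnight with Tet: a 110 s read after compound pin addition, then a 110 s antagonist read after challenge with 54-4 at 4 uM final (EC80).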
CtBP-E1A inh = blocks the CtBP interaction with E1A; AlphaScreen GST-E1A/His-CtBP binding, 1536-well; stronger effect = lower value; control for the full effect not named in the record; activity change, % (no concentration beside the values); actives 0.49% (n = 340,000); in the data active means activity change below about -65%; inconclusive means about -30% to -65%; inactive means above about -30%; note: % is set by controls: 0 for no effect and ±100 for the full control effect; compound concentration not given in the record
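GST-E1A and His-tagged CtBP (125 nM each as 5X stock) were preincubated with pin-transferred compound for 2 h at 37 °C in the dark, then glutathione donor and nickel acceptor beads were added for 1 h before AlphaScreen reading.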
TRPV1 potentiator = potentiators of human vanilloid receptor 1 (TRPV1); potentiation, % at 8.33 µM; Q8NER1; AID 540277; TRPV1-expressing cells, Fluo-8 calcium influx, capsaicin EC20 potentiation; host cell line not named in the record; control for the full effect not named in the record; actives 0.02% (n = 320,000); active means potentiation above 80%; inconclusive means 30% to 80%; inactive means below 30%; note: 0% is about no effect
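Fluo-8 calcium influx in TRPV1-expressing cells, kinetic read (ex 480/em 520 nm). Compound added and read 3 min for agonist activity, followed by capsaicin at EC20 final and 2 min further read for enhancement.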
TRPML1 agonist = human mucolipin-1 channel agonism. Q9GZU1. TRPML1-expressing cells, Ca2+ dye fluorescence, FDSS; host cell line not named in the record; reference of the full effect not given here. activation, % (no concentration beside the values). actives 0.12% (n = 410,000). AID 624414; in the data active = activation above about 50%; inconclusive = about 30% to 50%; inactive = below about 30%; note: 0% is about no effect; the text of the record puts the active cut at 80%
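Tetracycline-induced TRPML1-DL cells are seeded and incubated overnight before loading with a no-wash Ca2+ dye and quencher. Agonist activity is taken from the 110 s fluorescence read following compound pin-transfer on an FDSS, before EC80 54-4 challenge.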
Starred values were filed as active, the others as inactive; u = inconclusive; x = no result given. Some of the compounds tested; rates above refer to the full screens.

SMILES	D2 PAM	Six1-Eya2 inh	TRPML1 blocker	CtBP-E1A inh	TRPV1 potentiator	TRPML1 agonist
CCN1C(=O)C(=Cc2ccc(C)s2)C(=O)N(CC)C1=S	-6	-10	0	1	15	2.9
CCC(=NCCC1=CCCCC1)c1c(O)[nH]c(=O)[nH]c1=O	26	2	-12	6	11	-1.1
O=P(N1CC1)(N1CC1)N1CCc2ccccc21	-3	-9	-1	-9	x	-0.4
COC(=O)C1=C(c2ccc(S(C)(=O)=O)cc2)C[C@@H]2CC[C@H]1N2C(=O)N1CCOCC1	-10	-7	-1	-7	x	-0.8
O=C(Nc1ccc(Cl)cc1C(=O)c1ccccc1)c1ccccc1	-4	-3	-11	-1	-1	1.9
CN1C(=O)/C(=C/c2cccn2-c2ccc3ccccc3c2)C(=O)NC1=S	-12	-79*	-8	-21	11	-0.2
CCN(C(=O)COC(=O)C(O)(c1ccccc1)c1ccccc1)c1c(N)n(Cc2ccccc2)c(=O)[nH]c1=O	0	8	8	-11	3	0.8
CCN(CC)CCN/N=C(\C)c1c(O)[nH]c(=O)[nH]c1=O	-1	-2	-4	x	u	0.8
COc1cc2c(cc1OC)-c1c(OC)c(OC)cc3c1[C@H](C2)[N+](C)(C)CC3	-26	0	-10	2	4	-0.3
CN1CCC(N2CC3CC(C2)c2cccc(=O)n2C3)CC1 (stereo not drawn)	-1	5	-1	3	-3	0.6
COC(=O)C1=C(c2cccc(OCc3ccccc3)c2)C[C@@H]2CC[C@H]1N2C(=O)NCc1ccc2[nH]ccc2c1	-12	-20	23	-20	2	-0.1
CCCCC1(CCC)C(=O)NC(=S)NC1=O	-8	-2	10	0	x	-0.1
C=C1C(C)C2C(Cc3ccccc3)NC(=O)C23C(OC(C)=O)C=CC(C)(O)CC(C)CC=CC3C1O (stereo not drawn)	-5	4	-22	0	x	0.1
COc1ccc(N2C(=O)/C(=C/c3ccc(OC)c(OC)c3)C(=O)NC2=S)cc1	-6	-12	-5	1	-6	-0.5
O=S(=O)(c1ccccc1)N1CCCCC1c1cccnc1 (stereo not drawn)	8	5	3	7	-15	0.0
O=c1nc(/C=C/c2ccc(Cl)cc2Cl)cc(C(F)(F)F)[nH]1	-4	-17	22	x	9	1.0
Oc1ccc(/C=N/NP(=S)(c2ccccc2)c2ccccc2)cc1O	14	-6	2	-8	u	5.9
Cc1ccc(-n2c(O)c(C=N)c(=O)n(-c3ccc(C)cc3)c2=O)cc1	-8	-2	11	x	-8	0.1
CC(=Nc1ccc2c(c1)CCC2)c1c(O)n(C2CCCCC2)c(=O)[nH]c1=O	6	-15	7	-1	5	1.0
O=C(N/N=C/c1c(O)n(C2CCCCC2)c(=S)[nH]c1=O)c1ccccc1O	-6	-11	-2	x	-7	0.2
COc1ccc(C(=O)C2CCCN(Cc3ccc(C)s3)C2)cc1OC (stereo not drawn)	-16	0	-3	x	-1	0.5
Oc1ccc(Cl)c(Cl)c1Cl	-10	-1	9	-24	8	0.0
O=c1[nH]c(=O)n(CCc2ccccc2)c(O)c1C=NC1CC1	-2	5	14	4	0	0.1
Cc1cccc(OCC(=O)N2CCN(Cc3ccc([N+](=O)[O-])cc3)CC2)c1	-9	0	-16	-4	-5	0.1
COc1cccc(NC(=O)CN2CC(c3ccccc3)CC2=O)c1 (stereo not drawn)	-4	0	19	2	-9	1.6
COc1cccc(-n2c(-c3ccoc3)nc3ccccc3c2=O)c1	-9	2	25	2	9	-0.4
O=C(Cn1ncc2c3ccccc3n(Cc3ccc(F)cc3)c2c1=O)N1CCC2(CC1)OCCO2	18	-11	11	0	4	-0.9
O=C1CN(C(=O)COC(=O)Cc2ccccc2)c2ccccc2N1	-7	3	-1	x	11	-0.1
S=C1NCCN1	0	23	-13	0	5	-0.5
CN1CCN(c2ccc(NC(=O)Oc3ccccc3)cc2)CC1	-9	-3	-10	-4	4	0.7
CCCCn1nnnc1C(c1cccs1)N1CCC2(CC1)C(=O)NCN2c1ccccc1 (stereo not drawn)	-8	-11	x	-8	x	-0.5
O=c1[nH]c2ccccc2n1C1CCN(Cc2ccc(-c3nc4ccc(F)cc4nc3-c3ccccc3)cc2)CC1	x	-16	x	-5	x	-0.3
CCC(=NCc1cc(OC)cc(OC)c1)c1c(O)[nH]c(=O)[nH]c1=O	1	1	3	x	-9	1.1
CCN(N=Nc1nonc1OC)c1nonc1OC	-22	3	3	2	10	0.5
COc1ccc(-c2nc(CSCC(=O)N3CCC4(CC3)OCCO4)c(C)o2)cc1OC	-7	0	2	-1	-13	-0.7
COc1ccc(Cl)cc1C(=O)C1CCCN(CCO)C1 (stereo not drawn)	-7	-1	13	5	-8	-0.7

Just TRPV1 potentiator, for some of the entries so far:
SMILES	TRPV1 potentiator
COc1cccc(-n2c(-c3ccoc3)nc3ccccc3c2=O)c1	9
O=C(Cn1ncc2c3ccccc3n(Cc3ccc(F)cc3)c2c1=O)N1CCC2(CC1)OCCO2	4
O=C1CN(C(=O)COC(=O)Cc2ccccc2)c2ccccc2N1	11
S=C1NCCN1	5

(listing goes on)
SMILES	D2 PAM	Six1-Eya2 inh	TRPML1 blocker	CtBP-E1A inh	TRPV1 potentiator	TRPML1 agonist
Cn1c(=O)cc(SCC(=O)N2CCC3(CC2)OCCO3)c2ccccc21	-17	-5	-3	0	-5	0.4
c1cnc2c(c1)ccc1ncccc12	-3	1	2	2	7	0.2
C(#CCN1CCOCC1)COCc1ccccc1	-7	2	-6	9	3	-0.4
COC(=O)C1=C(c2ccc(F)cc2F)C[C@@H]2CC[C@H]1N2C(=O)NCCNC(C)=O	-6	1	6	x	2	0.4
COc1ccc(CN2C(=O)NC(=O)/C(=C\c3ccc(OC)c(OC)c3OC)C2=O)cc1	1	6	8	0	1	0.2
Cc1nc2cc([N+](=O)[O-])ccc2c(=O)n1-c1ccccc1[N+](=O)[O-]	-2	0	31	-2	-7	1.8
COC(=O)C1=C(N)OC(C)=C(C(C)=O)C12C(=O)N(C)c1ccccc12 (stereo not drawn)	-4	4	-2	3	2	-1.4
CNC(=O)CSP(=S)(OC)OC	-7	6	2	-20	x	0.2
CCCCCCCCN=Cc1c(O)[nH]c(=O)[nH]c1=O	-7	5	22	1	14	0.7
COC(=O)Nc1ccc(N=C(N)N[N+](=O)[O-])cc1	-3	-5	-8	5	-2	1.5
CNC(=O)Oc1cccc2ccccc12	-2	-8	-17	-8	14	0.4
CCCNC(=O)N1[C@H]2CC[C@@H]1C(C(=O)OC)=C(c1ccc3ccccc3c1)C2	-13	11	-5	x	-12	-0.1

One compound at a time, from the list above.
Profile of `CCCCCCCCN=Cc1c(O)[nH]c(=O)[nH]c1=O` → D2 PAM = -7; Six1-Eya2 inh = 5; TRPML1 blocker = 22; CtBP-E1A inh = 1; TRPV1 potentiator = 14; TRPML1 agonist = 0.7
Profile of `COC(=O)C1=C(c2cccc(OCc3ccccc3)c2)C[C@@H]2CC[C@H]1N2C(=O)NCc1ccc2[nH]ccc2c1` → D2 PAM = -12; Six1-Eya2 inh = -20; TRPML1 blocker = 23; CtBP-E1A inh = -20; TRPV1 potentiator = 2; TRPML1 agonist = -0.1

Continued:
SMILES	D2 PAM	Six1-Eya2 inh	TRPML1 blocker	CtBP-E1A inh	TRPV1 potentiator	TRPML1 agonist
COc1cccc(C2(C#N)CCN(C)CC2)c1	-3	15	24	3	-15	-0.1
COC(=O)C1=C(c2ccc(F)cc2F)C[C@@H]2CC[C@H]1N2C(=O)NCCOc1ccccc1Cl	-12	-7	9	x	0	0.0
O=C(c1cc(=O)[nH]c2ccc(Br)cc12)N1CCC2(CC1)OCCO2	5	-11	18	-4	3	-0.5
CCN(CC)CCCOC(=O)C(OC)(c1ccccc1)c1ccccc1	-18	-2	4	7	14	-0.1
Cn1c(O)c(C2=NNC(c3ccc(Cl)cc3)C2)c(=O)n(C)c1=O (stereo not drawn)	-37	-6	-13	-1	1	0.4
C=CCN1CC[C@]23c4c5ccc(O)c4OC2[C@H](O)CC[C@@]3(O)[C@H]1C5 (stereo partly drawn)	-5	1	-5	3	x	-0.6
c1ccc(Nc2ccc(Nc3ccccc3)cc2)cc1	13	-4	-4	u	-11	0.0
N#CC1=C(N)Oc2c(c(=O)oc3ccccc23)C1c1ccncc1 (stereo not drawn)	-7	-1	14	-10	-3	0.5
Cc1nn(Cc2ccccc2)c(C)c1C(=O)O	-3	11	5	0	15	0.8
O=c1[nH]c(=O)n(-c2ccccc2)c(O)c1/C=C1/C(c2ccccc2)=Nc2ccccc21	-16	1	-2	-1	-17	7.8
O=C1NC(=O)N(c2ccc(Cl)cc2)C(=O)/C1=C\c1ccc(Sc2nc3ccccc3[nH]2)o1	-16	u	15	-27	-3	28
COc1ccccc1C1=NCc2nnc(CSC)n2-c2ccc(Cl)cc21	-6	-1	5	0	x	0.2

Some of the entries so far, with bars between the fields.
smiles | D2 PAM | Six1-Eya2 inh | TRPML1 blocker | CtBP-E1A inh | TRPV1 potentiator | TRPML1 agonist
Cn1c(O)c(C2=NNC(c3ccc(Cl)cc3)C2)c(=O)n(C)c1=O (stereo not drawn) | -37 | -6 | -13 | -1 | 1 | 0.4
C=CCN1CC[C@]23c4c5ccc(O)c4OC2[C@H](O)CC[C@@]3(O)[C@H]1C5 (stereo partly drawn) | -5 | 1 | -5 | 3 | x | -0.6
c1ccc(Nc2ccc(Nc3ccccc3)cc2)cc1 | 13 | -4 | -4 | u | -11 | 0.0

Quoted at random: 4 entries already listed.
SMILES	D2 PAM	Six1-Eya2 inh	TRPML1 blocker	CtBP-E1A inh	TRPV1 potentiator	TRPML1 agonist
N#CC1=C(N)Oc2c(c(=O)oc3ccccc23)C1c1ccncc1 (stereo not drawn)	-7	-1	14	-10	-3	0.5
COc1ccccc1C1=NCc2nnc(CSC)n2-c2ccc(Cl)cc21	-6	-1	5	0	x	0.2
c1ccc(Nc2ccc(Nc3ccccc3)cc2)cc1	13	-4	-4	u	-11	0.0
O=C(c1cc(=O)[nH]c2ccc(Br)cc12)N1CCC2(CC1)OCCO2	5	-11	18	-4	3	-0.5

Continued.
SMILES	D2 PAM	Six1-Eya2 inh	TRPML1 blocker	CtBP-E1A inh	TRPV1 potentiator	TRPML1 agonist
Cc1ccc(/C=C2\C(=O)NC(=O)N(Cc3ccccc3Cl)C2=O)o1	-2	-14	9	6	-3	0.2
O=C1NC(=O)C2(Cc3ccccc3N3CCCC32)C(=O)N1c1ccccc1 (stereo not drawn)	-5	-4	-1	-2	-11	0.1
CC12CC[C@H]3[C@@H](CCC4(O)C[C@H](O)CCC34/C=N/NC(=O)c3ccccc3Cl)C1(O)CCC2C1=CC(=O)OC1 (stereo partly drawn)	-10	-15	-9	-10	-15	1.2
CN1CCN(Cc2ccc(Br)s2)CC1	-24	4	-9	6	4	0.5
CC(C)OP(=O)(OC(C)C)C(O)c1ccccc1F (stereo not drawn)	-7	6	-6	10	-2	-0.1
COc1cc(/C=N/NP(=S)(c2ccccc2)c2ccccc2)ccc1O	6	-6	16	-10	3	0.7
CN1CCN(c2ncc(C=O)s2)CC1	-29	-3	-4	-4	-8	-0.4
Cc1ccc2c(c1)CC1(CN2C)C(=O)NC(=O)N(c2ccccc2C)C1=O (stereo not drawn)	-12	5	8	-2	12	-0.2
Cc1ccc(O)c(C)c1	-6	-3	-5	5	11	-0.6
O=c1[nH]c(=O)n(Cc2ccco2)c(O)c1/C=N/N1CCCCC1	-6	3	-15	12	-3	0.3
CCCCC(CC)COC(=O)c1ccccc1C(=O)OCC(CC)CCCC (stereo not drawn)	-4	9	-16	5	-1	0.3
